High-throughput results as filed in PubChem.
AmpC nodet inh: blocks E. coli AmpC beta-lactamase in absence of detergent. 71,000 compounds, 1.8% hits. P00811. AID 585. AmpC nitrocefin hydrolysis, absorbance 480 nm, no detergent; potencies from a single point are estimates. Potency, µM (titrated, usually from 28.7 µM), without a hit: at the top dose activity change, negative = inhibition; active = falling curve, for most hits resting on a single point; inconclusive = weak or doubtful change; inactive = flat or rising curve; also: % of control where 0% means no effect; about half of the hits show no inhibition at the top dose; a quarter of the inactives give rising signals
Target sequence (P00811 whole entry, looked up): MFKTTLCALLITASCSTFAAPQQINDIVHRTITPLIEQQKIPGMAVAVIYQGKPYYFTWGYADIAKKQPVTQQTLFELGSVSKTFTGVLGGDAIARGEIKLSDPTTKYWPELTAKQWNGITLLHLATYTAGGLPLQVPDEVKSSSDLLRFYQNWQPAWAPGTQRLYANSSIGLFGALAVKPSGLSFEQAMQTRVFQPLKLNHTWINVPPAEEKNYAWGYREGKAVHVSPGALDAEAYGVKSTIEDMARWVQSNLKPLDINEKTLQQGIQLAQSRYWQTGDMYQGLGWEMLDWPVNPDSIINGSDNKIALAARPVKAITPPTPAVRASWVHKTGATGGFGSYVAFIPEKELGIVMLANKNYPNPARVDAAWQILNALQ
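AmpC, 20 mM phosphate pH 7.0; 15 min cpd preinc, RT; start with nitrocefin (800 uM stock); A480 kinetic read, 20 s intervals, 4 min. No-enzyme wells = negative control.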
Numbers without * were called inactive; [ ] = remark or other dose. Potency is read from the fitted curve at half-maximal effect.

SMILES | AmpC nodet inh
O=C(O)c1ccc2c(c1)C(=O)N(Cc1ccccc1)C2=O | -8%
Cc1[nH]nc2c1C1(CCC(c3ccccc3)CC1)C(C#N)=C(N)O2 (stereo unspecified) | -5%
CN1C(=O)CC(N2CCN(C(=O)CN3CCCC3)CC2)C1=O (stereo unspecified) | -16%
COc1ccc(-c2nc(CSCC(=O)NCc3ccco3)c(C)o2)cc1 | 50%
Cc1nc(P(=O)(c2ccccc2)c2ccccc2)c(N2CCOCC2)o1 | 24%
CCCOc1ccc(N2CC(C(=O)Nc3ccc4c(c3)OCO4)CC2=O)cc1 (stereo unspecified) | 0%
O=C1CCCN1c1ccc(CNS(=O)(=O)c2ccc(F)cc2)cc1 | 13%
O=S(=O)(Nc1nc2ccccc2[nH]1)c1ccc(Cl)cc1 | -5%
COc1ccc(OC)c(S(=O)(=O)N2CCC(C(=O)NC(C)c3ccccc3)CC2)c1 (stereo unspecified) | 63%
CCc1nnc(NC(=O)c2ccc(S(=O)(=O)N(CC(C)C)CC(C)C)cc2)o1 | 2%
CCN(CC)c1ccc(NC(=O)c2cc3ccccc3o2)c(C)c1 | 1%
N#CCBr | -5%
O=C(COc1ncnc2ccccc12)NCCC1=CCCCC1 | 3%
COc1ccc(C2=NO[C@@H]3C(=O)N(c4ccc5c(c4)OCCO5)C(=O)[C@H]23)cc1OC | 27%
Cc1ccc(C(=O)CSc2nnc(COc3cc(C)cc(C)c3)o2)cc1 | 7%
CCN1CCN(C(=O)C2CCN(S(=O)(=O)c3cccc4cccnc34)CC2)CC1 | 14%
COc1cc(NC(=O)c2cc(-c3cccs3)on2)cc(OC)c1OC | 50%
CCc1nc(NCCc2ccccn2)c2nnn(Cc3ccccc3F)c2n1 | 52%
NCCCP(=O)(O)CC1CCCCC1 | 1%
CCOC(=O)c1c(NC(=O)c2cccs2)sc(C)c1CC | 2%
COc1cccc(-c2nc(NCc3cnc(C)cn3)c3ccccc3n2)c1 | 15%
Nc1nnc(SCCN2C(=O)c3ccccc3S2(=O)=O)s1 | -8%
CN(C)/C=N/c1ncnc2c1cnn2-c1ccc(C(F)(F)F)cn1 | 18%
COc1ccccc1N1CCN(C(=O)c2cc3c(=O)n(C)c4ccccc4c3n2C)CC1 | 65%
CC(C)(C)NC(=O)Nc1ccc2nccnc2c1 | -1%
COc1ccc(S(=O)(=O)N(Cc2cc3ccc(OC)cc3[nH]c2=O)CC2COCCO2)cc1 (stereo unspecified) | 89%
COc1ccc(C2=NO[C@@H]3C(=O)N(c4ccc(C)cc4C)C(=O)[C@H]23)cc1OC | 29%
O=C(O)CC(c1ccc(Cl)cc1)N1C(=O)CCC1=O (stereo unspecified) | -7%
Cc1nn2c(=O)cc(CSc3nc4ccccc4[nH]3)nc2s1 | 4µM*[single pt active]
CCOC(=O)c1ccc(NC(=O)C2CCCN(S(=O)(=O)c3cnc[nH]3)C2)cc1 (stereo unspecified) | 10%
Cc1nc2sccn2c1-c1csc(NCc2ccccc2)n1 | -4%
O=C(O)CCCC(=O)Nc1cccc(-c2nc3ccccc3[nH]2)c1 | 1%
CC(C)(C)NC(=O)c1ccc(COCC(F)(F)F)o1 | 8%
COC(=O)c1cnn(-c2ccc(C)c(C)c2)c1-n1cccc1 | 17%
CC(C)CCC(C(=O)O)C(C)CC(=O)NC1CCCCC1 (stereo unspecified) | -5%
C=CC(=O)OCC | -5%
Cc1cc(C)n(CCn2nc(C)cc2C)n1 | -8%
O=C(NC1CCCCCC1)C1c2ccccc2C(=O)N1Cc1ccco1 (stereo unspecified) | 10%
O=C(CN(Cc1ccco1)C(=O)Cn1nnc(-c2cccs2)n1)NCc1ccccc1 | 0%
O=C(NCCN1CCOCC1)c1cc(-c2ccccc2)on1 | 9%
CCSc1nc(N2CCOCC2)c2c(c1C#N)CCCC2 | 16%
Cc1cc(N2CCCCC2)nc(SCC(=O)c2ccccc2)n1 | 46%
CNc1ncnc2ccc(-c3ccc4c(c3)OCO4)cc12 | -2%
CCOC(=O)C1C(=O)CC(C)(O)C(C(=O)OCC)C1c1ccccc1OC (stereo unspecified) | 32%
O=C1C(=O)N(CCN2CCOCC2)C(c2ccccn2)/C1=C(/O)c1ccc(Cl)cc1 (stereo unspecified) | 4%
Cc1cc(C)cc(N2C(=O)N(c3ccccc3C)C3CS(=O)(=O)CC32)c1 (stereo unspecified) | -7%
Cc1cc(O)c(C(C)C)cc1C1(c2cc(C(C)C)c(O)cc2C)OC(=O)c2ccccc21 | -6%[5.75 µM]
O=C(O)CNC(=O)c1ccc([As](=O)(O)O)cc1 | -8%[5.75 µM]
CCc1c(O)nc(SCC(=O)NCc2ccco2)[nH]c1=O | -24%
CCS(=O)(=O)NCC(c1cccnc1)N1CCN(c2ccccc2F)CC1 (stereo unspecified) | 31%
COc1ccc(CCNC(=O)C2CCCN(c3nn4c(=O)cc(C)nc4s3)C2)cc1OC (stereo unspecified) | 16%
O=C(O)Cn1c(CC(=O)N2CCCC2)nc2ccccc21 | -6%
COc1cc2c(cc1OC)-c1cc(OCc3cccnc3)nc(=O)n1CC2 | 35%
O=c1[nH]ccc2c(O)cccc12 | 11%
O=C(CSc1ccc2nnc(-c3cccc(F)c3)n2n1)NCC1CCCO1 (stereo unspecified) | -6%
c1ccc(OP(Oc2ccccc2)Oc2ccccc2)cc1 | -6%
Cc1ccc(Cc2cncc(O)c2)cc1S(=O)(=O)O | -3%
COc1ccc(C(=O)N2CC(=O)N(CCc3ccccc3)C(=O)C2)cc1OC | 42%
CCN(CC)S(=O)(=O)c1ccc(S(=O)(=O)Nc2ccc(C(=O)N3CCCC3)cc2)cc1 | 22%
COC(=O)CSc1nnc(CNc2ccc(OC)cc2)n1C | 5%

Further structures follow.
SMILES | AmpC nodet inh
COc1ccc(OC)c(NC(=O)c2cc(-c3cc(Cl)ccc3O)n[nH]2)c1 | 10µM*
Cc1ccc(-n2nc(C(=O)N3CCN(C)CC3)c3c4ccccc4n(C)c3c2=O)cc1 | 30%
CCCCC(=O)Nc1ccc(NC(=O)C(C)C)cn1 | 4%
COc1ccc(CC(=O)OCC(=O)Nc2ncc(Cl)cc2Cl)cc1 | 4%
O=C(Nc1nc2ccc(S(=O)(=O)N3CCCCC3)cc2s1)C1CCCO1 (stereo unspecified) | 29%
CC(c1nnc(SCC(=O)c2c(N)n(C)c(=O)n(C)c2=O)n1-c1ccc(Cl)cc1)N(C)C (stereo unspecified) | 62%
Cc1nc2cc(C(F)(F)F)ccc2n1C1CCN(C(=O)N2CCOCC2)CC1 | 100%
Cn1ncc(Cl)c1C(=O)Nc1cccnc1 | -6%
O=C(NCCN1CCOCC1)[C@H](Cc1ccccc1)N1C(=O)c2ccccc2C1=O | 31%
Cc1nc2ccc(CCO)cc2s1 | -10%
COc1ccc(CCN(C(=O)c2ccccc2)C2=CC3CCC(C2)N3C)cc1OC (stereo unspecified) | -4%
CCc1ccc2oc(-c3cccc(NC(=O)c4cccnc4)c3)nc2c1 | 86%
Clc1cccc2ccccc12 | -8%
CCC1CCCCN1C(=O)c1cc2cc(Br)ccc2oc1=O (stereo unspecified) | 17%
c1ccc(Sc2ncnc3c2oc2ccccc23)nc1 | 26%
CC1=C(C(=O)OCC(C)C)C(c2cccc(F)c2)N2C(=O)C(C)SC2=N1 (stereo unspecified) | 52%
CCOC(=O)C1CCCN(c2c(Nc3cccc(C)c3)c(=O)c2=O)C1 (stereo unspecified) | 4µM*[single pt active]
Cc1cccc(NS(=O)(=O)c2ccccc2)n1 | 2%
Cc1ccc(C(=O)Nc2nnn(C)n2)cc1 | -12%
Cc1nc(SCc2c(F)cccc2Cl)c2c(=O)n(C)c(=O)n(C)c2n1 | 6%
COC(=O)c1ccc(CSc2nc3scc(-c4cccs4)c3c(=O)[nH]2)o1 | 13µM*
CN1CCN(CC(=O)Nc2c(C(=O)C3CC3)oc3ccccc23)CC1 | 46%
CC1(C)CCC[C@@]2(C)[C@@H]1CC[C@]1(C)OC(=O)C[C@@H]21 | 55%
Cc1noc(C)c1C(=O)Nc1cccnc1 | -9%
O=C1C2CCCN2C(c2ccccc2F)N1c1ccc(Cl)cc1 (stereo unspecified) | 52%
COc1ccc(CN2C(=O)C3C4C=CC(C4)C3C2=O)cc1 (stereo unspecified) | 0%
COc1ccc(S(=O)(=O)N2CCCC(C(=O)O)C2)cc1 (stereo unspecified) | 1%
O=C(c1ccc(F)cc1)c1ccc(N2CCCC2)cc1 | 4%
Nc1ccc(C(=O)O)cc1 | -3%
COc1ccccc1N1CCN(S(=O)(=O)c2cccc3nsnc23)CC1 | 38%
COc1ccc(C(=O)N2CCC[C@@]3(CCN(c4ncccn4)C3)C2)cc1 | -1%
CC(O)COc1ccc(/C(=N/O)c2ccccc2)cc1 (stereo unspecified) | 13%
COc1ccc(C(=O)COC(=O)CCn2nnc(-c3cccc(O)c3OC)n2)cc1 | 21%
CSC1=NCCN1C(=O)Cc1ccc(Cl)cc1 | 14%
CC1(C)Cc2c(C#N)c(SCC(=O)c3ccccc3)nc(N3CCOCC3)c2CO1 | 31%
C=CCn1c(SCC(=O)c2cc(C)n(C(C)COC)c2C)nc2sc(C)c(C)c2c1=O (stereo unspecified) | 106%
O=C(Nc1ccccc1F)c1ccncc1 | -3%
CCOC(=O)c1cnc2c(C(F)(F)F)cccc2c1N1CCOCC1 | 33%
Cc1csc2nc(CNS(=O)(=O)c3ccc4c(c3)CCCC4)cn12 | 0%
Cc1ccc(C)n1-c1ncn[nH]1 | 7%
O=c1[nH]c(=O)n([C@@H]2C[C@H](O)[C@H](CO)O2)cc1I | -4%[12.8 µM]
NCCSCCc1ccccc1 | 3%[5.75 µM]
CCCc1nc2sc3c(SCC(=O)NCc4ccco4)ncnc3c2c2c1CCC2 | -2%
O=C(CSc1nc2ccccc2o1)Nc1nc2c(s1)CCCC2 | 2%
CC(=O)Nc1nc(N2C(=O)c3ccccc3C2=O)n(-c2ccccc2)n1 | -3%
Cn1c(CCNC(=O)c2ccccc2F)nnc1SCc1nc2ccccc2c(=O)[nH]1 | 9%
COc1ccc2cc(CN(C(=O)Nc3ccccc3OC)C3CCCC3)c(=O)[nH]c2c1 | 76%
CCCCn1nnc(NC(=O)Cc2ccc(Cl)cc2)n1 | -1%
CCCCOc1ccc(S(N)(=O)=O)cc1 | -12%
CCN(CC)S(=O)(=O)c1ccc(C(=O)Nc2ccc3c(c2)OCCO3)cc1 | 5%
COc1cc(OC)cc(C(C)=O)c1 | -2%
CC(C)CN1CC2(CCN(C(=O)c3ccco3)CC2)C1 | 80%
CC(C(=O)c1ccccc1)n1c(N2CCOCC2)nc2c1c(=O)n(C)c(=O)n2C (stereo unspecified) | 42%
Cc1csc(NC(=O)c2cc3c(s2)-c2ccccc2OC3)n1 | -16%
CCOC(=O)CSc1nnc([C@H](Cc2ccccc2)NC(=O)OC(C)(C)C)o1 | 28%
Cc1c2cnn(-c3ccccc3)c(=O)c2c(C)n1CCCC(=O)N1CCN(C)CC1 | 73%
COc1cc(Cl)cc(NC(=O)CCN2CCN(C)CC2)c1 | -6%
c1ccc2c(c1)NC(CN1CCOCC1)CO2 (stereo unspecified) | -5%
CCOC(=O)N1CCN(C(=O)CSc2nc(-c3cccc(C)c3)ns2)CC1 | 118%
CCc1c(C)c2ccc(O)c(CN(C)C)c2oc1=O | -4%

Reformatted as tab-separated lines: 17 of the compounds above
structure	AmpC nodet inh
O=c1[nH]c(=O)n([C@@H]2C[C@H](O)[C@H](CO)O2)cc1I	-4%[12.8 µM]
NCCSCCc1ccccc1	3%[5.75 µM]
CCCc1nc2sc3c(SCC(=O)NCc4ccco4)ncnc3c2c2c1CCC2	-2%
O=C(CSc1nc2ccccc2o1)Nc1nc2c(s1)CCCC2	2%
CC(=O)Nc1nc(N2C(=O)c3ccccc3C2=O)n(-c2ccccc2)n1	-3%
Cn1c(CCNC(=O)c2ccccc2F)nnc1SCc1nc2ccccc2c(=O)[nH]1	9%
COc1ccc2cc(CN(C(=O)Nc3ccccc3OC)C3CCCC3)c(=O)[nH]c2c1	76%
CCCCn1nnc(NC(=O)Cc2ccc(Cl)cc2)n1	-1%
CCCCOc1ccc(S(N)(=O)=O)cc1	-12%
CCN(CC)S(=O)(=O)c1ccc(C(=O)Nc2ccc3c(c2)OCCO3)cc1	5%
COc1cc(OC)cc(C(C)=O)c1	-2%
CC(C)CN1CC2(CCN(C(=O)c3ccco3)CC2)C1	80%
CC(C(=O)c1ccccc1)n1c(N2CCOCC2)nc2c1c(=O)n(C)c(=O)n2C (stereo unspecified)	42%
Cc1csc(NC(=O)c2cc3c(s2)-c2ccccc2OC3)n1	-16%
CCOC(=O)CSc1nnc([C@H](Cc2ccccc2)NC(=O)OC(C)(C)C)o1	28%
Cc1c2cnn(-c3ccccc3)c(=O)c2c(C)n1CCCC(=O)N1CCN(C)CC1	73%
COc1cc(Cl)cc(NC(=O)CCN2CCN(C)CC2)c1	-6%

Carrying on:
SMILES | AmpC nodet inh
O=C(NCC(=O)N(Cc1cccs1)C(C(=O)NC1CCCC1)c1ccco1)c1cccs1 (stereo unspecified) | -8%
COCCNC(=O)CN(C(=O)CCC(=O)Nc1cc(C)on1)c1ccccc1C | 10%
CCN(CC)S(=O)(=O)c1ccc(C(=O)NCc2nnc(SCC(=O)OC)n2C)cc1 | 20%
Cc1ccc2[nH]c(=O)c(CN(Cc3ccco3)S(=O)(=O)c3c(C)ccc4nsnc34)cc2c1 | 29%
COc1ccc(N2CCN(CCNS(=O)(=O)c3cccc4nsnc34)CC2)cc1 | 42%
COc1ccc(C(CNC(=O)c2cccnc2SC)N2CCOCC2)cc1 (stereo unspecified) | 7%
CCC(=O)c1cc2c(cc1NC(=O)C(C)C)OCCO2 | 10%
CCOc1ccc(NC2=NC(C)(C)N=C(N)N2)cc1 | -12%
CC(=O)c1cccc(NC(=O)Cc2cccs2)c1 | -21%
CCn1c(C(O)c2ccc3c(c2)OCO3)nc2ccccc21 (stereo unspecified) | -2%
CSc1ccc2c(c1)N(CCCN(C)C)c1ccccc1S2 | 14%[5.75 µM]

Not all compounds are listed, so the mix of outcomes need not match the whole.
